High-throughput results from PubChem BioAssay.
HTT prom inh = inhibits huntingtin promoter activity | HEK293 HTT promoter firefly luciferase reporter (activity 0% = vehicle and -100% = no light), 24 h | Potency, µM (series often up to 57.5 µM), for inactives: at the top dose activity change, negative = inhibition, actives largely listed as inhibitors | actives 0.93% (n = 48,000); active = well fitted inhibition curve with a large enough effect; inconclusive = small, poorly fitted or top-dose-only effect; inactive = no such curve, though single readings can be large or run the other way; also: nearly all actives have a fitted effect of over 50% in size
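Firefly luciferase readout (Dual-Glo, 10 min RT) after 24 h, 37 °C compound exposure (final up to 57.5 uM) of HEK293 reporter cells cultured 24 h beforehand; PTC124 at 50 uM final as control inhibitor; activity scaled vehicle 0%, zero RLU -100%.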
PMP22 txn = modulates PMP22 transcription in S16 Schwann cells | S16 Pmp22-F2sN Schwann cells (luciferase reporters placed in the Pmp22 gene), FLuc/NLuc coincidence luminescence, 24 h | Potency, µM (doses to about 57.5 µM), inactives show top-dose activity change, negative = inhibition, most hits filed as inhibitors | actives 2% (n = 43,000) | AID 1508649; active = clear falling dose curves in both reporters; inconclusive = both reporters move, but less clearly or upward; inactive = either reporter flat; the % is the NLuc reporter signal; also: % is scaled to controls: 0 for no effect and ±100 for the full control effect; some results filed as inactive show a strong effect at the top dose
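Schwann cells carrying the coincidence reporter were exposed to library compounds for 24 h at 37C, then lysed and read for FLuc and, after quenching, NLuc luminescence on a CCD imager.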
Numbers without * were called inactive; ? = inconclusive; · = no result given; & = joins results of further samples; [ ] = remark or other dose. Potency is read from the fitted curve at half-maximal effect. Only part of the results is shown; count on the stated rates, not on these rows.

SMILES	HTT prom inh	PMP22 txn
Cc1cc(=O)oc2cc(O)ccc12	-13%&2%	·
O=C(O)c1ccc(-n2nc(-c3ccccc3O)nc2-c2ccccc2O)cc1	?	·
CC(C)OCc1cc(CN2CCN(c3ccccc3)CC2)c(O)c2ncccc12	13µM*	5.1µM*
CCCCOc1cc(C(=O)OCCN(CC)CC)ccc1N	-9%	·
COC(=O)N/N=C/c1c[n+]([O-])c2ccccc2[n+]1[O-]	7%	·
Cn1ccc2cc3c(cc21)CCN3C(=O)Nc1cccnc1	23%	·
CC1(C)O[C@@H]2C[C@H]3[C@@H]4C[C@H](F)C5=CC(=O)C=C[C@]5(C)[C@@]4(F)[C@@H](O)C[C@]3(C)[C@]2(C(=O)CO)O1	8%	·
COCCOc1ccc2c(c1)ncn2-c1ccc2cccc(N3CCC(N)CC3)c2n1	?	·
O=C(O)c1ccc(Nc2ncc3c(n2)-c2ccc(Cl)cc2C(c2c(F)cccc2F)=NC3)cc1	?	·
O=C(Nc1cccc(Cl)c1)Nc1ncc(CCNc2ncnc3ccsc23)s1	-7%	·
C=C1c2cccc(O)c2C(O)=C2C(=O)[C@@]3(O)C(O)=C(C(N)=O)C(=O)[C@@H](N(C)C)[C@@H]3[C@@H](O)[C@H]12	?	·
CC(C)CCCC(C)NCCC(C)C (configuration not stated)	-3%	·
CCC[C@H](Nc1nc(-c2ccc(NC(=O)NCC)c(OC)c2)ncc1C)c1cccnc1	?	·
C[C@@H]1CCC[C@H](C)N1CCCC(O)(c1ccccc1)c1ccccn1 (some centres not stated)	-3%	·
Cn1cnc(-c2cc3nccc(Oc4ccc(NC(=S)NC(=O)Cc5ccccc5)cc4F)c3s2)c1	-13%	·
CNc1nccc(-c2cccnc2Oc2cc(C(=O)Nc3cccc(C(F)(F)F)c3)ccc2C)n1	-29%	·
NCc1ccccc1Sc1ccccc1CO	5%	·
Cc1nc2n(c(=O)c1CCN1CCC(C(=O)c3ccc(F)cc3)CC1)CCS2	-14%	·
CCOC(=O)[C@H](CCc1ccccc1)N[C@@H](C)C(=O)N1C(=O)N(C)C[C@H]1C(=O)O	-6%	·
Cc1ccc(C(=O)Nc2cccc(C(F)(F)F)c2)cc1-c1ccc2nc(NCCN3CCOCC3)ncc2c1	?	·
Cc1c(C)n(Cc2ccccc2)c2ccc(C(=O)OCCN(C)C)cc12	-8%	·
CCc1cc2c(cc1N1CCC(N3CCOCC3)CC1)C(C)(C)c1[nH]c3cc(C#N)ccc3c1C2=O	4%	·
CN(c1nccc(=O)[nH]1)C1CCN(c2nc3ccccc3n2Cc2ccc(F)cc2)CC1	34%&5%[activator]	·
CN(C)CCCSc1ccccc1NC(=O)/C=C/c1ccccc1	1%	·
Oc1cc(-c2nc(-c3ccccc3)[nH]c2-c2ccncc2)ccc1Cl	?	·

Gathered by group: the compounds so far with a CF3 group (two)
SMILES	HTT prom inh	PMP22 txn
CNc1nccc(-c2cccnc2Oc2cc(C(=O)Nc3cccc(C(F)(F)F)c3)ccc2C)n1	-29%	·
Cc1ccc(C(=O)Nc2cccc(C(F)(F)F)c2)cc1-c1ccc2nc(NCCN3CCOCC3)ncc2c1	?	·

Next entries
SMILES	HTT prom inh	PMP22 txn
C[C@@H]1C[C@H]2[C@@H]3CCC4=CC(=O)C=C[C@]4(C)[C@@]3(Cl)[C@@H](O)C[C@]2(C)[C@@]1(OC(=O)c1ccco1)C(=O)CCl	?	·
NS(=O)(=O)c1ccc(N2CCCCS2(=O)=O)cc1	7%	·
CC=C(C)C(=O)O[C@H]1C(C)=C[C@]23C(=O)[C@@H](C=C(CO)[C@@H](O)[C@]12O)[C@H]1[C@@H](C[C@H]3C)C1(C)C	-10%	·
CN(C(=O)c1c(O)c2ccccc2n(C)c1=O)c1ccccc1	-5%	·
Cc1ccccc1N1CCN(CCc2nnc3n2CCCC3)CC1	10%	·
CCn1c(-c2nonc2N)nc2cnc(Oc3cccc(NC(=O)c4ccc(OCCN5CCOCC5)cc4)c3)cc21	?	·
COc1cc(CCc2cc(NC(=O)c3ccc(N4C[C@@H](C)N[C@@H](C)C4)cc3)n[nH]2)cc(OC)c1	-27%	·
O=C(O)Cc1sc(-c2ccccc2)nc1-c1ccc(Cl)cc1	3%	·
CC(=O)OCC(=O)[C@@]1(O)CC[C@H]2[C@@H]3CCC4=CC(=O)C=C[C@]4(C)[C@@]3(F)[C@@H](O)C[C@@]21C	5%	·
CC(C)NCCCC1(C(N)=O)c2ccccc2-c2ccccc21	-1%	·
CCOC(=O)c1ccc(NC(=O)c2cc(=O)c3ccc(C)c(C)c3o2)cc1	-11%	?
CCn1cc(C(=O)O)c(=O)c2cc(F)c(N3CCNC(C)C3)c(F)c21 (configuration not stated)	4%&3%	·
CNC(=O)c1cc(COc2nnc(Nc3ccc(Cl)cc3)c3ccoc23)ccn1	-1%	·
COC(=O)C1=C(C)NC(C)=C(C(=O)OCCN2CCN(C(c3ccccc3)c3ccccc3)CC2)C1c1cccc([N+](=O)[O-])c1 (configuration not stated)	-6%	·
O=C1c2c(O)cccc2[C@@H]([C@@H]2O[C@H](CO)[C@@H](O)[C@H](O)[C@H]2O)c2cc(CO)cc(O)c21	?	·
CC(C)(C)NCC(O)COc1cccc2c1C[C@H](O)[C@H](O)C2 (some centres not stated)	11%	·
CCCCC(CC)COC(=O)c1ccccc1O (configuration not stated)	-4%	·
C=CCN1C[C@H](C(=O)N(CCCN(C)C)C(=O)NCC)C[C@@H]2c3cccc4[nH]cc(c34)C[C@H]21	8%	·
O=C1c2c(O)ccc(O)c2C(=O)c2c(NCCNCCO)ccc(NCCNCCO)c21	?	·
CCOC(=O)c1ccccc1O	-3%	·
CCCCN(CCCC)CCCOC(=O)c1ccc(N)cc1	4%	·
CC[C@H](C)[C@H](N)C(=O)O	11%	·
CCN1CCN(c2ccc(Nc3cc(N(C)C(=O)Nc4c(Cl)c(OC)cc(OC)c4Cl)ncn3)cc2)CC1	3%	·
CN(C)C(=O)CNC(=O)Cc1ccccc1	-2%	·
CC(=O)Nc1ccc(OC(=O)c2ccccc2OC(C)=O)cc1	-5%	·
SMILES	HTT prom inh	PMP22 txn
CC(=O)N(C)C1(c2ccccc2)CCN(CCC[C@]2(c3ccc(Cl)c(Cl)c3)CCCN(C(=O)c3ccccc3)C2)CC1	?	·
CCN(CC)C(=O)C1CN2CCc3cc(OC)c(OC)cc3C2CC1OC(C)=O (configuration not stated)	5%	·
CCOC1OC(=O)C[C@H]1NC(=O)[C@@H]1CCCN1C(=O)[C@@H](NC(=O)c1ccc(N)c(Cl)c1)C(C)(C)C (some centres not stated)	14%	·
CCOc1ccc2nc(N3CCC(C(=O)Nc4ccccc4CC)CC3)sc2c1	18%	?
CN[C@@H]1[C@H](O)[C@H](NC)[C@H]2O[C@@]3(O)C(=O)C[C@@H](C)O[C@H]3O[C@@H]2[C@H]1O	14%	·
CCCCOCCOC(=O)c1cccnc1	11%	·
CC(C)(Cc1ccc2ccccc2c1)NC[C@@H](O)COc1cccc(Cl)c1C#N	8%	·
CN1[C@@H]2CC[C@H]1CC(NC(=O)n1c(=O)[nH]c3ccccc31)C2 (some centres not stated)	3%	·
CCCCCCCCCCCCOCCOCCOCCOCCOCCOCCOCCOCCOCCO	-29%	·
O=C(O)Cc1cn(-c2ccccc2)nc1-c1ccc(Cl)cc1	-3%	·
CCCOc1ccc(C(=O)OCCN(CC)CC)cc1N	2%&0%	·
CNC(=O)c1cc(Oc2ccc(NC(=O)Nc3ccc(Cl)c(C(F)(F)F)c3)c(F)c2)ccn1	?	·
CN(C)S(=O)(=O)n1cc(/C=C(\NC(=O)c2ccccc2)C(=O)NCCCn2ccnc2)c2ccccc21	0%	?
CS(=O)(=O)c1ccc(-c2cn3ccccc3n2)cc1	7%	·
CCn1ccc(NS(=O)(=O)c2ccc(N)cc2)nc1=O	3%	·
CC(Cc1cccc(C(F)(F)F)c1)NCCOC(=O)c1ccccc1 (configuration not stated)	2%	·
COc1cc2ncn(-c3cc(OCc4ccccc4S(C)(=O)=O)c(C#N)s3)c2cc1OC	?	·
Cc1cccc(Cc2c(C)nc3c(-c4ccccc4)c(C)[nH]n3c2=O)c1	?	?
OCCn1cc(-c2ccc3c(c2)CCC3=NO)c(-c2ccncc2)n1	?	·
CCN(CC)CCOc1ccc(Cc2ccccc2)cc1	-3%&2%	·
Cc1ccccc1OCC(O)CO (configuration not stated)	9%	·
CC(C)c1nn(-c2c(Cl)cccc2Cl)c2nc(Cc3ccc(OCCO)cc3)[nH]c(=O)c12	?	·
COc1ccc(C(=O)c2ccccc2)c(O)c1	22%	·
CC1(C)CC(=O)c2c(C(F)(F)F)nn(-c3ccc(C(N)=O)c(NC4CCC(O)CC4)c3)c2C1 (configuration not stated)	?	·
CN(C)CC/C=C1/c2ccccc2COc2ccc(CC(=O)O)cc21	-4%	·
SMILES	HTT prom inh	PMP22 txn
CNCc1ccc(-c2[nH]c3cc(F)cc4c3c2CCNC4=O)cc1	6%	·
Cc1c(Cl)cccc1NC(=O)Cn1cc(C(=O)C2CCCCC2)c2ccccc21	?	10µM*
Cc1ccc(C)c(Nc2nc3nonc3nc2Nc2cccc(C)c2C)c1	?	?
CCCC(=O)O[C@]1(C(=O)CCl)[C@@H](C)C[C@H]2[C@@H]3CCC4=CC(=O)C=C[C@]4(C)[C@@]3(F)C(=O)C[C@@]21C	-17%	·
CCCOc1ccc2nc(NC(=O)OC)[nH]c2c1	-25%&-16%	·
Cc1scc2c1N(C(=O)CN1CCN(C)CC1)c1ccccc1NC2=O	24%	·
Nc1ncnc2c1c(-c1cccc(OCc3ccccc3)c1)cn2C1CC(CN2CCC2)C1 (configuration not stated)	-8%	·
Cc1c(C(=O)Nc2ccc(N3C[C@@H](C)O[C@@H](C)C3)nc2)cccc1-c1ccc(OC(F)(F)F)cc1	6%	·
Cn1cc(-c2ccc3nnc(Sc4ccc5ncccc5c4)n3n2)cn1	-2%	·
N=c1nc(N2CCCCC2)cc(N)n1O	8%&22%	·
CCN(CC)CC1CCCCN1CC(=O)N1c2ccccc2C(=O)Nc2cccnc21 (configuration not stated)	5%	·
O=C(NC1CCN(CCc2c[nH]c3ccccc23)CC1)c1ccccc1	-9%	·
O=[N+]([O-])c1cncn1CCN1CCOCC1	7%	·
CCc1cccc(CC)c1NC(=O)CN(CC(=O)O)CC(=O)O	3%	·
Cc1cccc(N(C)C(=S)Oc2ccc3c(c2)CCC3)c1	-8%	·
COc1cc2nccc(Oc3ccc(NC(=O)NC4CC4)c(Cl)c3)c2cc1C(N)=O	?	·
CCCn1c(=O)c2[nH]c(-c3cnn(Cc4cccc(C(F)(F)F)c4)c3)nc2n(CC)c1=O	4%	·
O=C(CCN1CCN(CCO)CC1)N1c2ccccc2Sc2ccc(C(F)(F)F)cc21	2%	·
Cc1nc(C2CCCCC2)c(-c2ccc(S(N)(=O)=O)c(F)c2)o1	-27%	·
Cc1ncc(-c2ccnc(Nc3ccc(S(C)(=O)=O)cc3)n2)n1C(C)C	?	·
CCOC(=O)c1sc(NC(=O)c2c(-c3ccccc3)c(-c3ccccc3)nn(C)c2=O)nc1C	?	3%
Nc1c2ccccc2nc2ccccc12	?	·
CC1(C)OC2=C(C(=O)c3ccccc3C2=O)[C@H](NCc2ccccc2)[C@H]1O	?	·
COc1ccc(-c2oc3c(CC=C(C)C)c(OC4O[C@H](CO)[C@@H](O)[C@H](O)[C@@H]4O)cc(O)c3c(=O)c2OC2O[C@@H](C)[C@H](O)[C@@H](O)[C@@H]2O)cc1 (some centres not stated)	-5%	·
CCCCCCCCCCCCCCCC[N+](C)(C)Cc1ccccc1	-21%	·
SMILES	HTT prom inh	PMP22 txn
CC(C)C[C@@H]1[C@H](c2ccccc2)OC(=O)N1CCCN1CCCCCC1	-8%	·
CNS(=O)(=O)CCc1ccc2[nH]cc(C3CCN(C)CC3)c2c1	?	·
COc1cc2nccc(Oc3ccc(NC(=O)C4(C(=O)Nc5ccc(F)cc5)CC4)cc3)c2cc1OC	-21%	·
CCN(CCCCOC(=O)c1ccc(OC)c(OC)c1)C(C)Cc1ccc(OC)cc1 (configuration not stated)	8%	·
O=C(O)c1cc(=O)c2ccccc2o1	-2%	·
COc1ccc(-c2cc(C(F)F)nn2-c2ccc(S(N)(=O)=O)cc2)cc1F	-4%	·
NC(=O)c1cccc2[nH]c(-c3ccc([C@H]4CCCN4)cc3F)nc12	7%	·
Cc1nc2c3ccccc3nc(NNC(=O)CCC(=O)N3CCN(c4ccccc4F)CC3)n2n1	-51%	-4%
CN(C)c1ccc2nc3ccc(=[N+](C)C)cc-3sc2c1	-23%&-12%	·
CC(C)NNC(=O)c1ccncc1	-4%	·
CCCCCCCCCCCC[N+](C)(C)Cc1ccccc1	4%	·
O=C(NCCCN1CCOCC1)c1ccc(Cl)cc1	13%	·
COc1cc(C=O)ccc1O	1%	·

Exported as a markdown table: part of the list above.
| SMILES | HTT prom inh | PMP22 txn |
| --- | --- | --- |
| CN(C)c1ccc2nc3ccc(=[N+](C)C)cc-3sc2c1 | -23%&-12% | · |
| CC(C)NNC(=O)c1ccncc1 | -4% | · |

2 records picked at random from the list so far:
SMILES	HTT prom inh	PMP22 txn
Cc1nc2c3ccccc3nc(NNC(=O)CCC(=O)N3CCN(c4ccccc4F)CC3)n2n1	-51%	-4%
COc1ccc(-c2cc(C(F)F)nn2-c2ccc(S(N)(=O)=O)cc2)cc1F	-4%	·
